Source: PubChem BioAssay (several laboratories)
eIF4H FP inh: inhibitors of RNA binding by human eIF4H; Q15056; eIF4H fluorescence polarization binding assay; inhibition, % at 35 µM; 290,000 tested, 0.94% active; AID 2012;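 active = 50% or more with normal probe brightness, or confirmed in later tests; about a fifth of its hits are not listed in these tables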;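 also: calls also rest on retests at 20 µM and on dose response follow-up; 0% = protein and probe with vehicle and 100% = probe without protein; strong numbers were not always called active; many hits fall short of the cut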
Yeast UUG start: modulators of start codon recognition fidelity in yeast; activity score, % at 18.7 µM; 350,000 tested, 0.13% active; S. cerevisiae UUG-firefly luciferase reporter, luminescence/redox ratio;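 active = replicate mean at a twofold rise or more, about +100% in these data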;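 also: firefly luciferase made from a UUG start codon reports start codon fidelity; reporter light over untreated wells divided by growth signal over untreated wells; some hits fall short of that in this replicate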
PABP FP inh: PABP-poly(A) binding inhibition; inhibition, % at 35 µM; P11940; 290,000 tested, 1% active; PABP-poly(A) RNA binding, fluorescence polarization;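 active = 50% or more with normal probe brightness, or confirmed in later tests; about a fifth of its hits are not listed in these tables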;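 also: calls also rest on retests at 20 µM and on dose response follow-up; controls were probe without protein and protein plus probe with vehicle; some compounds called inactive have numbers as strong as hits; many hits fall short of the cut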
Target sequence (P11940 whole entry, looked up): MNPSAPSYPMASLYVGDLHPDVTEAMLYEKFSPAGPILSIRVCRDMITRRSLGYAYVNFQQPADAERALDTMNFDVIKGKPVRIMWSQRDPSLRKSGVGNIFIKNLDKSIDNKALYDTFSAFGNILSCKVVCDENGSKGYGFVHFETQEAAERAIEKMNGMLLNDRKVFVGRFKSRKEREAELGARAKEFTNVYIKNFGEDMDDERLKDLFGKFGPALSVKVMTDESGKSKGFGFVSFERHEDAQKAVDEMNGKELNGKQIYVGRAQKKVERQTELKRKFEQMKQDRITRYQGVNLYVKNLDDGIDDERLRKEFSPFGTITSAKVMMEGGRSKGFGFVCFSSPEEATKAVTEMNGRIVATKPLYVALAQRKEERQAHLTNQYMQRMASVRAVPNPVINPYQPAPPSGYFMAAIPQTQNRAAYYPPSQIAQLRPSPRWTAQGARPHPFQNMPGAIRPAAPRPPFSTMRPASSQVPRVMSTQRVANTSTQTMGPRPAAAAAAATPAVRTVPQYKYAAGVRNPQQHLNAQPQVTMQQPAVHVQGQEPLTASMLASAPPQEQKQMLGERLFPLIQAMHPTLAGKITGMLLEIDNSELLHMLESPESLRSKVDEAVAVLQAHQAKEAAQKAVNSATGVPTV
CSC inhib: cancer stem cell inhibition; cancer stem cell-like cells viability, luminescence; inhibition, % at 7.5 µM; 300,000 tested, 1.1% active;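 active = mean at 75% or more and at least half the replicates too; tested in HMLE shEcad cells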;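 also: 0% = median of negative and 100% = median of positive control wells; the first replicate is given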
MT1-MMP act inh: blocks activation of human MT1-MMP | P50281 | HT1080 RFP-PRO-GFP cells, GFP/RFP ratio fluorescence, overnight; percent of plate control window, DMSO zero | GFP/RFP ratio change, % at 20 µM | 360,000 tested, 0.061% active | AID 651647;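 active = GFP/RFP ratio change of at least 30% with cell ATP level not reduced by more than half and red fluorescence within 50% of control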; also: strong numbers were not always called active
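Assay system: HT1080 RFP-PRO-GFP cells. Benchmarks: DMSO vehicle wells and RFP-L50D-GFP reporter cell wells. Times: overnight cell settling, then overnight compound exposure, 37 °C, 5% CO2. Compound: 20 µM single dose, 1% DMSO. Read-out basis: GFP/RFP fluorescence ratio.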
Rce1 inhib: inhibitors of yeast Ras-converting enzyme | Q03530 | yeast membranes, quenched prenylated peptide cleavage fluorescence | calls only | 290,000 tested, 0.27% active | AID 2563;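 active = fall in fluorescence gain of 50% or more versus controls, with final raw signal at or below 3038400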;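 also: plate controls were neutral control wells for no effect and wells lacking membranes for full effect; tested at 10 µM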
Target sequence (Q03530 whole entry, looked up): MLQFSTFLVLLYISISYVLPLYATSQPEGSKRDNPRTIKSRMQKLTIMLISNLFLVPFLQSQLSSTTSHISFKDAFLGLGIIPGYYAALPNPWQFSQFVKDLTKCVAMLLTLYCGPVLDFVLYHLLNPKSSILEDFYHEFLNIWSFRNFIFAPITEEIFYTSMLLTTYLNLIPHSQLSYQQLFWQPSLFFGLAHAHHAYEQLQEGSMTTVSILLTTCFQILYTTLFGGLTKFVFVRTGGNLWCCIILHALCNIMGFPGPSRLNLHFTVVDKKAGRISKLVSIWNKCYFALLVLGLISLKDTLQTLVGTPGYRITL
HIV Env fusion: HIV envelope-mediated fusion inhibition; AID 651610; inhibition, % at 12.3 µM; HeLa-JRFL Env/CEM21 cell fusion, luciferase; 360,000 tested, 1.1% active;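 active = mean replicate inhibition score of at least 50 and every replicate individually at or above 50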;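 also: 0% = plate neutral controls and 100% = maraviroc near 300 nM; one replicate is shown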
eIF4H FP inh retest: second read-out of eIF4H FP inh, no call of its own (marks repeat the call); inhibition, %; compound at 20 µM; confirmation average;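 mean of two retest wells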
PABP FP inh retest: also measured in PABP FP inh; calls as there; inhibition, %; compound at 20 µM; confirmation repeats;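 mean of two retest wells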
MT1-MMP act inh RFP: further read-out of MT1-MMP act inh, marked with its call; RFP signal change, %; measured here: RFP expression control read;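 0 = vehicle wells; hits needed this value within 50% of zero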
Numbers without * were called inactive; i = inactive; . = not tested or not shown.

SMILES	eIF4H FP inh	Yeast UUG start	PABP FP inh	CSC inhib	MT1-MMP act inh	MT1-MMP act inh RFP	Rce1 inhib	HIV Env fusion	others
CCOc1ccc2nc(COC(=O)c3ccco3)c(C(C)=O)[n+]([O-])c2c1	12	4	9	-3	-1	1	i	.
Oc1cnn(-c2ccccc2)c1	10	.	1	-4	1	1	i	.
NC1=NC[C@H](c2ccccc2)N1CC1CCCCC1	.	1	.	-5	-6	0	i	-33
CCn1c(C)c(C(C)=O)cc(C#N)c1=O	18	.	9	-16	1	5	i	-42
COCCn1ccc(O)c(Cc2ccc(Cl)cc2)c1=O	-1	-1	-2	-12	-1	1	i	.
CC(=O)OC1C(OC(C)=O)N(C(C)=O)C(=O)N1C(C)=O (configuration not stated)	-15	-3	-6	.	3	7	i	.
COc1cccc(-c2ccc3c(c2)N(Cc2ccccc2OC)C(=O)C(C)S3)c1 (configuration not stated)	.	-4	.	.	-10	-6	.	8
OC(COc1ccc2ccccc2c1)Cn1ccnc1 (configuration not stated)	-4	.	4	.	5	-1	i	.
COc1cccc(NC(=O)c2nnn(CC(=O)Nc3cc(C)cc(C)c3)c2N)c1	0	-19	4	-4	2	-3	i	3
O=C(Nc1ccc(Cl)cc1C(=O)Nc1ccncc1)c1ccco1	-2	-20	2	-8	-33	-12	i	-8
Cc1c(OCC(=O)NCCN2CCOCC2)ccc2c1oc(=O)c1ccccc12	-7	2	5	-12	3	1	i	15
CCN(CC(=O)NCc1ccc(F)cc1)C(=O)COc1ccc2ccccc2c1	-18	-13	4	-33	2	-1	i	-33
CC(OC(=O)CC1CCCCC1)C(=O)Nc1ccc(S(N)(=O)=O)cc1 (configuration not stated)	.	.	.	-12	3	0	i	-26
O=C(NC1(C(F)(F)F)C(=O)Nc2c1c(=O)[nH]c(=O)n2-c1ccc(F)cc1)c1cccnc1 (configuration not stated)	0	-4	0	-2	1	2	i	-3
CCOc1cc(NS(=O)(=O)CC)c(OCC)cc1NC(=O)c1ccco1	0	-26	-3	-12	8	7	i	1
C/C(=N\Nc1cc(C)nc(-c2ccccc2O)n1)c1ccccc1O	-2	-12	3	80*	-4	2	i	5
Cc1nc(N2CCC(C)CC2)c2c(C)c(C(=O)Nc3cc(F)ccc3C)sc2n1	8	.	10	.	-12	-11	i	-7
COc1ccc(NC(=O)c2cc3ccccc3cc2O)cc1	-4	-14	0	87*	1	-9	i	-78
CC1CCCC(C)N1C(=O)Cn1cc(C#N)c2ccccc21 (configuration not stated)	7	.	6	-3	5	2	i	-1
Cc1cc(C)n2c(=S)[nH]nc2n1	-5	-5	10	5	6	8	i	.
CCCC1NC(=S)NC(C)=C1C(C)=O (configuration not stated)	11	.	15	-6	5	-8	i	11
CCCSc1nnc2c(n1)OC(c1cccn1C)N(C(C)=O)c1ccccc1-2 (configuration not stated)	0	-12	14	0	4	0	i	-18
CSc1ccc(S(=O)(=O)N2CCC(C(=O)NC3CC3)CC2)cc1	2	.	-1	-20	2	2	i	-19
Nc1nc2ccc(-c3nc4ccccc4o3)cc2s1	0	-25	11	9	3	-10	i	.

Some of these compounds in order of SMILES length, smallest number first.
SMILES	eIF4H FP inh	Yeast UUG start	PABP FP inh	CSC inhib	MT1-MMP act inh	MT1-MMP act inh RFP	Rce1 inhib	HIV Env fusion	others
COc1ccc(NC(=O)c2cc3ccccc3cc2O)cc1	-4	-14	0	87*	1	-9	i	-78
CC1CCCC(C)N1C(=O)Cn1cc(C#N)c2ccccc21 (configuration not stated)	7	.	6	-3	5	2	i	-1
C/C(=N\Nc1cc(C)nc(-c2ccccc2O)n1)c1ccccc1O	-2	-12	3	80*	-4	2	i	5

(next part)
SMILES	eIF4H FP inh	Yeast UUG start	PABP FP inh	CSC inhib	MT1-MMP act inh	MT1-MMP act inh RFP	Rce1 inhib	HIV Env fusion	others
OCCN(CCO)Cc1ccc(Br)cc1	-5	.	7	-9	6	0	i	.
CCN(CC)CCN(CC(=O)N(C1CCCCC1)C1CCCCC1)C(=O)c1ccco1	-6	.	4	-17	-3	0	i	5
CCOc1ccc(NC(=O)Cn2cncc2-c2ccc([N+](=O)[O-])cc2)cc1	2	-15	-6	-5	5	0	i	.
N#Cc1ccccc1OCC(=O)N(C1CCCCC1)C1CCS(=O)(=O)C1 (configuration not stated)	.	.	.	-14	2	2	i	.
CC(Sc1nc2c([nH]c3ccccc32)c(=O)n1C)c1ccccc1 (configuration not stated)	5	8	11	-3	2	3	i	-5
Cn1nc(-c2ccc(Cl)cc2)c2cc(C(=O)N3CCN(c4ccccn4)CC3)sc21	8	3	1	66	-9	-29	i	.
COC(=O)/C=C/c1ccccc1S(=O)(=O)N(Cc1ccccc1)Cc1ccco1	2	-15	15	62	5	-10	i	-209
CCN1CCCC1CNC(=O)CSc1cc(=O)n(CC)c2ccccc12 (configuration not stated)	-6	-13	6	-8	1	7	i	-49
CC1CCN(C(NC(=O)c2ccco2)C(=O)c2ccccc2)CC1 (configuration not stated)	4	-7	0	-7	-3	1	i	-84
O=C(NC(=S)Nc1ccc(C(F)(F)F)cc1)c1csnn1	-1	.	18	4	5	3	i	-7
C=CCc1cccc(/C=N/n2cnnc2)c1O	7	-14	-6	-3	-8	-3	i	-101
O=C(Nc1ccc(Cl)cc1F)c1cccc2ccccc12	-3	0	-8	11	-1	-4	i	-6

Next part; the last seven above are carried over.
SMILES	eIF4H FP inh	Yeast UUG start	PABP FP inh	CSC inhib	MT1-MMP act inh	MT1-MMP act inh RFP	Rce1 inhib	HIV Env fusion	others
Cn1nc(-c2ccc(Cl)cc2)c2cc(C(=O)N3CCN(c4ccccn4)CC3)sc21	8	3	1	66	-9	-29	i	.
COC(=O)/C=C/c1ccccc1S(=O)(=O)N(Cc1ccccc1)Cc1ccco1	2	-15	15	62	5	-10	i	-209
CCN1CCCC1CNC(=O)CSc1cc(=O)n(CC)c2ccccc12 (configuration not stated)	-6	-13	6	-8	1	7	i	-49
CC1CCN(C(NC(=O)c2ccco2)C(=O)c2ccccc2)CC1 (configuration not stated)	4	-7	0	-7	-3	1	i	-84
O=C(NC(=S)Nc1ccc(C(F)(F)F)cc1)c1csnn1	-1	.	18	4	5	3	i	-7
C=CCc1cccc(/C=N/n2cnnc2)c1O	7	-14	-6	-3	-8	-3	i	-101
O=C(Nc1ccc(Cl)cc1F)c1cccc2ccccc12	-3	0	-8	11	-1	-4	i	-6
CCOc1ccc(S(=O)(=O)/N=C(/Nc2ccc(OC)cc2)c2ccccc2)cc1	3	-10	-18	-15	2	-3	i	-6
O=C1Oc2ccccc2C(=O)/C1=C\N1CCN(c2ccccc2)CC1	8	.	-3	-8	-19	-5	i	3
O=[N+]([O-])c1ccc2c(c1)N([O-])C1(CCCCC1)[N+]2=O	15	.	21	.	.	.	.	8
CC1CCN(Cc2nnnn2CCCC(=O)NCC(C)(C)N2CCOCC2)CC1	-13	-6	11	14	0	4	i	-4
Cc1noc(C)c1COc1ccc(C(=O)Nc2ccccn2)cc1	5	-7	-10	-1	4	1	i	14
CC(=O)NNC(=O)c1[nH]c2ccc(Br)cc2c1-c1ccccc1	-7	9	-5	28	-1	1	i	16
O=C(CSc1nc(-c2ccc(F)cc2)nc2c1Cc1ccccc1O2)Nc1cccc(C(=O)O)c1	81	.	5	.	.	.	i	12	eIF4H FP inh retest=0;PABP FP inh retest=3
O=C(Nn1cnnc1)c1cc(Br)ccc1Cl	-18	-15	2	-12	-2	-2	.	-5
CCOC(=O)c1oc2cc(O)ccc2c(=O)c1-c1ccccc1OC	3	.	-4	1	4	0	i	.
COc1ccc(C(=O)C2CCCN(Cc3ccc(NC(C)=O)cc3)C2)cc1OC (configuration not stated)	15	0	1	-7	-1	1	i	-1
COC(=O)C(CO)NC(=O)C1CCCN1C(=O)CNC(=O)OCc1ccccc1 (configuration not stated)	5	-7	1	-8	-2	2	i	11
Cc1ccc(CNS(=O)(=O)c2ccc3c(c2)CCN3C(=O)C2CCC2)cc1	4	-11	-3	6	6	5	i	4
CCc1ccc(NC(=S)NC2CC3CCCC(C2)N3Cc2ccccc2)cc1 (configuration not stated)	-2	.	0	-6	1	-4	i	-21
CCCOc1ccc(C(=O)O/N=C(\CC)c2ccc(C)cc2)cc1	3	0	3	10	-2	-1	i	-5
COc1cccc(CN2CCC2(C)C(=O)NCc2cccc(C(F)(F)F)c2)c1OC (configuration not stated)	.	7	.	.	2	-6	.	9
CC(=O)COc1ccc2c3c(c(=O)oc2c1C)CCCCC3	7	-15	2	8	5	-6	i	-30
CS(=O)(=O)N1CCN(c2ccc([N+](=O)[O-])c3cccnc23)CC1	-4	.	-6	-1	4	5	i	17
CCCCC(NC(C)=O)c1nc2ccccc2n1CCCC (configuration not stated)	1	-1	5	-2	0	7	i	2
O=C(OCC(=O)N(CCc1ccccc1)Cc1ccccc1)c1ccccc1[N+](=O)[O-]	.	-12	.	-4	2	-5	i	14
O=C(C1CCN(C2CCN(Cc3cccc4c3OCO4)CC2)CC1)N1CCOCC1	1	2	2	-2	0	2	i	-12
COc1cc(CNc2ncc(-c3ccc(Br)cc3)n2C)cc(OC)c1O	-3	0	6	-6	4	0	i	13
COc1cc(-c2n[nH]c(=O)o2)cc(OC)c1OC	-10	-6	-1	.	.	.	i	.
CCOC(=O)C1(Cc2ccccc2C)CCCN(C(=O)c2sccc2C)C1 (configuration not stated)	6	-6	6	4	-1	2	.	8
CCOc1ccc(C2NC(=O)C(C#N)=C(S)N2c2ccc(OC)cc2)cc1OC (configuration not stated)	1	-26	9	-21	4	10	i	.
COc1ccc(F)cc1C(=O)C1CCCN(C(=O)c2ocnc2C)C1 (configuration not stated)	-7	.	-3	-12	1	3	i	-12
CCN1CCN(c2sc(S(C)(=O)=O)nc2S(=O)(=O)c2ccc(Cl)cc2)CC1	0	-22	-10	1	6	-5	i	.
COc1cc2c(cc1NC(=O)c1cc(-c3ccncc3)nc3ccc(C)cc13)oc1ccccc12	-12	-1	6	37	-26	-15	i	-22
COC(=O)C1C(=O)c2c([nH]c(C(=O)OC3CCCCC3)c2C)CC1C (configuration not stated)	-13	-7	-4	25	-2	-12	i	-219
O=C(Nc1ccn(Cc2c(F)c(F)c(F)c(F)c2F)n1)c1cccc(Cn2cc([N+](=O)[O-])cn2)c1	6	-2	3	5	-7	-11	i	27
CC1CN(C(=O)CCC(=O)NCCc2ccccc2)c2ccccc2O1 (configuration not stated)	-2	-8	-4	-12	6	5	i	-106
C/C(=N/N1CCN(Cc2ccccc2)CC1)c1ccc(Br)cc1	-6	-7	14	-4	6	-4	i	9
CCCCOC(=O)Nc1ccccc1C(=O)N1CCCC1	3	.	-1	-2	14	4	i	.
O=[N+]([O-])c1ccc(Cl)c(NC2=NCCCCC2)c1	-3	2	4	.	1	-1	i	-18
COc1cc(NCCCC(C)N)c2ncccc2c1 (configuration not stated)	.	-12	.	.	3	6	i	.
CCc1ccc2oc(C(=O)N3CCN(c4ccc(OC)cc4)CC3)cc(=O)c2c1	-5	-2	-5	-11	5	-1	i	15
CC1(C)CC(=O)c2cn3ncnc3nc2C1	-7	-11	-12	-15	4	-2	i	.
COc1ccc(C)cc1NC(=O)C(OC(=O)CNC(=O)c1ccc(Br)cc1)c1ccccc1 (configuration not stated)	-12	.	-13	-8	-1	0	i	12
COc1ccc(-c2nnc(NC(=O)CS(=O)(=O)c3ccc(F)cc3)o2)cc1	.	-27	.	10	1	7	i	-40
O=C1CCCc2c1cc(C(=O)Nc1ccc(Br)cn1)c(=O)n2-c1ccccc1	2	2	4	-7	-68	-7	i	0
O=C(c1ccccc1)c1ccc(-n2ccnc2)c([N+](=O)[O-])c1	22	-35	-7	-20	1	-5	.	-6
CN(CCc1ccccn1)Cc1ccc(Cl)c(Cl)c1	34	-9	7	-4	1	4	i	-7
O=C(COc1ccccc1)N[C@@H]1c2ccccc2CC[C@H]1OCc1ccccc1	.	-9	.	.	-25	-27	.	9

The list is partial; count on the stated rates, not on these rows.
